Hedgehog – Drosophila hedgehog isoform A inhibitors, primary screen, biochemical, plate reader, single concentration (AID 588832). Biochemical plate reader assay, Hedgehog inhibition; stronger effect = higher value. inhibition, % at 30.3 µM. 8,000 tested, under 10 active; in the data active means inhibition from about 57%;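 further: 0% = neutral control wells and 100% = positive control wells; cholesterol-driven self-cleavage of fly hedgehog protein by fluorescence polarization; read one hour after cholesterol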
Starred values were filed as active, the others as inactive. An excerpt; the hit share may differ from the screen's.

SMILES	Hedgehog
CSc1nnc(Cn2c(=O)sc3ccccc32)n1CCc1ccccc1	7
O=C(NCc1ccc(F)cc1)C(=O)NCC1OCCN1C(=O)c1ccc(Cl)cc1 (stereo unspecified)	-2
COc1cc(O)c(C(C)=O)c(CC(=O)O)c1	10
Cc1ccnc(SCCn2c(N(C)Cc3ccccc3)nc3c2c(=O)n(C)c(=O)n3C)n1	4
CC1CN(C(=O)CCC(=O)NCc2ccccc2)c2ccccc2O1 (stereo unspecified)	2
CCNc1cc(O)ccc1C	4
Cc1cc(C)c2c(n1)SCC(=O)N2CC(=O)Nc1c(C)cccc1C	19
CCCC(=O)NC(C)c1nc2ccccc2[nH]1 (stereo unspecified)	8
O=C(/C=C/CCc1ccc2c(c1)OCO2)N1CCCCC1	5
CCCS(=O)(=O)c1c(S(=O)(=O)CCC)c2c(C)cccn2c1C(=O)N/N=C/c1cc(O)cc(O)c1	11
Nc1ncnc2c1ncn2[C@H]1C[C@H](O)[C@@H](CO)O1	5
Cc1cc(C)n2nc(SCC(=O)Nc3ccc(F)cc3)nc2n1	7
COCCCNC(=O)CS(=O)Cc1nc(-c2ccccc2C)oc1C (stereo unspecified)	4
Cn1c(CNc2ccccc2O)nc2ccccc21	5
CC(=O)c1ccc(N2CCN(S(=O)(=O)c3ccc4c(c3)CC(=O)N4)CC2)cc1	4
CCCSc1nnc(Cn2c(=O)sc3ccccc32)n1-c1ccccc1	17
Cc1ccc(S(=O)(=O)Cc2ccc(C(=O)N3CCN(c4cccc(C)c4C)CC3)o2)cc1	9
COc1ccc(S(=O)(=O)N2CCOC2CNC(=O)C(=O)NCCc2ccccc2)cc1C (stereo unspecified)	2
CCCN(CCC)C(=O)COc1cc(=O)n(CC)c2ccccc12	21
C[C@]12C=CC(=O)C=C1CC[C@@H]1[C@@H]2C(=O)C[C@@]2(C)[C@H]1CC[C@]2(O)C(=O)CO	0
COc1cc(NC(=O)CCS(=O)(=O)c2ccc3c(c2)n(C)c(=O)c(=O)n3C)cc(OC)c1	5
CC(c1c(O)c2ccccc2[nH]c1=O)C1(C)CCC(O)C(C)(C)O1 (stereo unspecified)	2
CCOc1ccc(OCC)c(S(=O)(=O)NCc2ccc3c(c2)OCO3)c1	4
Cn1cccc1Cc1nnc(SCC(=O)Nc2ccc3c(c2)OCO3)n1CCc1ccccc1	12
O=C(CCc1ccccc1)c1c(O)cc(O)cc1O	7
(more compounds)
SMILES	Hedgehog
O=C(COc1ccc2c3c(c(=O)oc2c1)CCCC3)N1C[C@H]2C[C@@H](C1)c1cccc(=O)n1C2	5
COc1cccc(NC(=O)CSc2nnc(Cc3cccn3C)n2-c2ccc(F)cc2)c1	10
CCC(Sc1nncn1C)C(=O)Nc1nnc(-c2ccccc2Cl)s1 (stereo unspecified)	3
Cc1ccc(NC(=O)CCC(=O)N2CCOc3ccccc32)c(Cl)c1	0
COc1ccccc1N1CCN(c2cc(C)nc3nc(C)nn23)CC1	7
CCCCCCn1c(SCC(=O)c2ccccc2)nc2c1c(=O)[nH]c(=O)n2C	9
COc1ccc(-c2cc3c(=O)n(CC(=O)NCc4ccccc4F)ncn3n2)cc1	-2
CC(NS(C)(=O)=O)C(c1cccs1)N1CCN(Cc2ccccc2)CC1 (stereo unspecified)	0
CCCOc1ccc(C2c3c(oc4cc(C)c(C)cc4c3=O)C(=O)N2CCCN(C)C)cc1 (stereo unspecified)	17
COc1ccc(CNC(=O)[C@H](C)N2C(=O)N3CCc4c([nH]c5ccccc45)[C@@]3(C)C2=O)cc1OC	7
Cc1coc2cc3oc(=O)c(CC(=O)N4C[C@H]5C[C@@H](C4)c4cccc(=O)n4C5)c(C)c3cc12	2
CCOc1ccc(N2CC(C(=O)Nc3ccccc3OC)CC2=O)cc1 (stereo unspecified)	0
COc1ccc(C2CC(c3c(Cl)cccc3Cl)n3nc(N)nc3N2)cc1 (stereo unspecified)	17
CCOC(=O)N1CCN(Cc2nc3c(c(=O)n(C)c(=O)n3C)n2Cc2ccc(F)cc2)CC1	3
Cc1cc(Nc2cc(C)on2)n2ncnc2n1	15
COc1cc(/C=C/C(=O)OC2CC3CCC2(C)C3(C)C)ccc1O (stereo unspecified)	9
Cc1ccc(N(C(C)C(=O)O)S(=O)(=O)c2cccnc2)cc1 (stereo unspecified)	17
Cc1cc2c(cc1S(=O)(=O)N1CCCCC1)OCC(=O)N2	11
CC1(C)CC(=O)c2c(O)cc(OCC(=O)Nc3ccc(CCO)cc3)cc2O1	11
COc1ccc(C(=O)NCC(c2cccnc2)N2CCN(c3ccccc3OC)CC2)cc1OC (stereo unspecified)	5
COc1c2c(cc3oc(=O)ccc13)OC(C)(C)C=C2	5
CCC(C)/C=C/C1=CC2=C(Cl)C(=O)C3(C)OC(=O)C(C(=O)C(C)C(C)O)C3C2=CO1 (stereo unspecified)	-3
CCN1CCN(S(=O)(=O)c2cc3c(cc2Cl)NC(=O)CO3)CC1	9
Cc1ccc(-c2nc(CS(=O)CC(=O)NCCN3CCCC3)c(C)o2)cc1 (stereo unspecified)	-1
CCCCCCCC(=O)OCC(COC(=O)CCCCCCC)OC(=O)CCCCCCC	7

2 entries drawn at random from those above:
SMILES	Hedgehog
COc1cc(/C=C/C(=O)OC2CC3CCC2(C)C3(C)C)ccc1O (stereo unspecified)	9
Cc1ccc(-c2nc(CS(=O)CC(=O)NCCN3CCCC3)c(C)o2)cc1 (stereo unspecified)	-1

Next compounds
SMILES	Hedgehog
Oc1ccccc1-c1nnc(COc2ccccc2)o1	29
Cc1nnc(NC(=O)CSc2nnc(Cc3cccn3C)n2C)s1	9
O=C(Cn1cc2c(n1)CCCC2)NCC1CCCO1 (stereo unspecified)	0
OCC(O)C1OC(c2ccccc2)OC(CO)C1O (stereo unspecified)	7
CCOc1ccc(NC(=O)CSc2nc3ccccc3nc2N2CC(C)OC(C)C2)cc1 (stereo unspecified)	13
O=C(CCC(=O)n1ncc2ccccc21)N1CCCCC1	5
COc1ccc(C(=O)/C=C/c2ccccc2)c(O)c1	5
Cc1ccc(S(=O)(=O)NCc2ccc3c(c2)cc(C)n3C)cc1	12
CCOC(=O)c1ccc(N=c2sc(C(=O)OC)cc(=O)n2-c2ccc(C(=O)OCC)cc2)cc1	3
COc1cccc(C(=O)NCc2cn3ccsc3n2)c1	8
COc1ccc(CCNC(=O)C(=O)NCC2OCCN2S(=O)(=O)c2ccc(Cl)cc2)cc1OC (stereo unspecified)	4
COc1ccc(CCNC(=O)C(=O)NCC2OCCN2S(=O)(=O)c2ccc(C)cc2)cc1OC (stereo unspecified)	4
CC(=O)N1CCc2cc(C(=O)CN3CCC(C)CC3)ccc21	2
COc1ccc2oc(C(=O)CCC(=O)O)c(N)c2c1	5

In the list so far, 28 contain sulfur.
SMILES	Hedgehog
CSc1nnc(Cn2c(=O)sc3ccccc32)n1CCc1ccccc1	7
Cc1ccnc(SCCn2c(N(C)Cc3ccccc3)nc3c2c(=O)n(C)c(=O)n3C)n1	4
Cc1cc(C)c2c(n1)SCC(=O)N2CC(=O)Nc1c(C)cccc1C	19
CCCS(=O)(=O)c1c(S(=O)(=O)CCC)c2c(C)cccn2c1C(=O)N/N=C/c1cc(O)cc(O)c1	11
Cc1cc(C)n2nc(SCC(=O)Nc3ccc(F)cc3)nc2n1	7
COCCCNC(=O)CS(=O)Cc1nc(-c2ccccc2C)oc1C (stereo unspecified)	4
CC(=O)c1ccc(N2CCN(S(=O)(=O)c3ccc4c(c3)CC(=O)N4)CC2)cc1	4
CCCSc1nnc(Cn2c(=O)sc3ccccc32)n1-c1ccccc1	17
Cc1ccc(S(=O)(=O)Cc2ccc(C(=O)N3CCN(c4cccc(C)c4C)CC3)o2)cc1	9
COc1ccc(S(=O)(=O)N2CCOC2CNC(=O)C(=O)NCCc2ccccc2)cc1C (stereo unspecified)	2
COc1cc(NC(=O)CCS(=O)(=O)c2ccc3c(c2)n(C)c(=O)c(=O)n3C)cc(OC)c1	5
CCOc1ccc(OCC)c(S(=O)(=O)NCc2ccc3c(c2)OCO3)c1	4
Cn1cccc1Cc1nnc(SCC(=O)Nc2ccc3c(c2)OCO3)n1CCc1ccccc1	12
COc1cccc(NC(=O)CSc2nnc(Cc3cccn3C)n2-c2ccc(F)cc2)c1	10
CCC(Sc1nncn1C)C(=O)Nc1nnc(-c2ccccc2Cl)s1 (stereo unspecified)	3
CCCCCCn1c(SCC(=O)c2ccccc2)nc2c1c(=O)[nH]c(=O)n2C	9
CC(NS(C)(=O)=O)C(c1cccs1)N1CCN(Cc2ccccc2)CC1 (stereo unspecified)	0
Cc1ccc(N(C(C)C(=O)O)S(=O)(=O)c2cccnc2)cc1 (stereo unspecified)	17
Cc1cc2c(cc1S(=O)(=O)N1CCCCC1)OCC(=O)N2	11
CCN1CCN(S(=O)(=O)c2cc3c(cc2Cl)NC(=O)CO3)CC1	9
Cc1ccc(-c2nc(CS(=O)CC(=O)NCCN3CCCC3)c(C)o2)cc1 (stereo unspecified)	-1
Cc1nnc(NC(=O)CSc2nnc(Cc3cccn3C)n2C)s1	9
CCOc1ccc(NC(=O)CSc2nc3ccccc3nc2N2CC(C)OC(C)C2)cc1 (stereo unspecified)	13
Cc1ccc(S(=O)(=O)NCc2ccc3c(c2)cc(C)n3C)cc1	12
CCOC(=O)c1ccc(N=c2sc(C(=O)OC)cc(=O)n2-c2ccc(C(=O)OCC)cc2)cc1	3
COc1cccc(C(=O)NCc2cn3ccsc3n2)c1	8
COc1ccc(CCNC(=O)C(=O)NCC2OCCN2S(=O)(=O)c2ccc(Cl)cc2)cc1OC (stereo unspecified)	4
COc1ccc(CCNC(=O)C(=O)NCC2OCCN2S(=O)(=O)c2ccc(C)cc2)cc1OC (stereo unspecified)	4

Screening results from PubChem BioAssay.
